Compound activity as filed in PubChem BioAssay.
Lassa entry inh: inhibitors of Lassa virus binding or cell entry; Lassa virus pseudotype entry inhibition, cell reporter; control for the full effect not named in the record; Potency, µM (top dose mostly 37.9 µM), inactives show at the top dose activity change, negative = inhibition, most hits filed as inhibitors; actives 1.2% (n = 300,000); AID 540256; active means well fitted inhibition curve with a large enough effect; inconclusive means small, poorly fitted or top-dose-only effect, or effect the other way; inactive means flat fitted curve, though single readings scatter; tested in HEK293 cells; further: on the % scale 0 is the no-effect control and ±100 the full control effect; nearly all actives have a fitted effect of over 50% in size; luciferase read-out
StopGo reporter: FMDV 2A StopGo reporter, luciferase signal; human cells with a luciferase reporter of 2A StopGo recoding; control for the full effect not named in the record; Potency, µM (highest dose often 57.9 µM), for inactives: at the highest dose signal change, negative = less light; actives 1.2% (n = 410,000); AID 1159524; active = well fitted falling curve with a large enough effect; inconclusive = small, poorly fitted or top-dose-only effect; inactive = no such curve, though single readings can be large or run the other way; tested in HEK293T cells; further: on the % scale 0 is the no-effect control and ±100 the full control effect; nearly all actives have a fitted effect of over 45% in size; luciferase light after 4 h
SARS PLP yeast: inhibitors of SARS-CoV papain-like protease in yeast. Potency, µM (highest dose often 32.9 µM), for inactives: at the top dose activity, positive = growth rescue. S. cerevisiae expressing SARS-CoV PLpro, growth rescue; control for the full effect not named in the record. actives 0.19% (n = 330,000); active means well fitted rising curve with a large enough effect; inconclusive means small, poorly fitted or top-dose-only effect; inactive means no such curve, though single readings can be large or run the other way; further: 0% is about no effect; nearly all actives have a fitted effect of over 55% in size; growth read by luminescence after 48 h
MARV entry inh: Marburg virus entry inhibition; Marburg virus pseudotyped entry inhibition, cell reporter; control for the full effect not named in the record; about a third of the inactives were read at about 46 µM; Potency, µM (series often up to 37.8 µM), for the others: at the highest dose activity change, negative = inhibition, actives largely listed as inhibitors; actives 1.8% (n = 300,000); AID 540276; active = well fitted inhibition curve with a large enough effect; inconclusive = small, poorly fitted or top-dose-only effect, or effect the other way; inactive = flat fitted curve, though single readings scatter; tested in HEK293 cells; about a fifth of its hits are not listed in these tables; further: on the % scale 0 is the no-effect control and ±100 the full control effect; luciferase read-out
Cruzain inh Det: inhibitors of Trypanosoma cruzi cruzain with detergent | purified cruzain, Z-FR-AMC fluorescence, 0.01% Triton | actives 0.43% (n = 200,000) | P25779 | Potency, µM, for inactives: max response, negative = inhibition, actives largely listed as inhibitors | AID 1478;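 further: plate controls were neutral wells for no effect and buffer without enzyme for full effect; nearly all actives have a fitted effect of over 40% in size; top concentration of the series not given in the record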
Target sequence (P25779 123-467 limits assumed): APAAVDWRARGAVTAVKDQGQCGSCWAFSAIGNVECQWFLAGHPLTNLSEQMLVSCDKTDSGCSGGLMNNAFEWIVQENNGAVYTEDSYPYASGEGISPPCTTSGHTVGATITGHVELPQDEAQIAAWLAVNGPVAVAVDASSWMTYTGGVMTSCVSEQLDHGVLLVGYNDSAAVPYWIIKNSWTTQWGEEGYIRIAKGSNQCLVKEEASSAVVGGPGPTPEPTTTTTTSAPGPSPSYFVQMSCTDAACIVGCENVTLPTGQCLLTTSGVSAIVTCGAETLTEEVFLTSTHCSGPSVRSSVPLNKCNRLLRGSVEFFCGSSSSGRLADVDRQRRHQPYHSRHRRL
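Read-out: AMC fluorescence (360 nm excitation, 450 nm emission), four reads over 2 min, first-to-third difference used. Conditions: cruzain 1.5 nM, Z-FR-AMC 2 uM, pH 5.5 acetate, 5 mM DTT, 0.01% Triton X-100.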
RE007 growth inh: less growth of the S. pombe RE007 Vpr strain; actives 0.21% (n = 360,000); S. pombe RE007 Vpr strain, BacTiter-Glo ATP luminescence, 24 h; control for the full effect not named in the record; AID 651644; Potency, µM (titrated, usually from 92.2 µM), inactives show top-dose activity change, negative = less growth; active = well fitted falling curve with a large enough effect; inconclusive = small, poorly fitted or top-dose-only effect; inactive = no such curve, though single readings can be large or run the other way;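 further: on the % scale 0 is the no-effect control and ±100 the full control effect; nearly all actives have a fitted effect of over 50% in size; the assay follows cell death caused by Vpr and the record does not say whether a fall means rescue or toxicity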
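Fission yeast RE007 carrying one integrated HIV-1 vpr copy, seeded at OD 0.01 in PMG+AL medium with 23 nL pinned compound. Grown 24 h at 30 degrees; viability read by BacTiter-Glo luminescence after 5 min.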
NS1 function inh: inhibitors of influenza NS1 protein function; S. cerevisiae slowed by influenza A NS1, growth recovery by OD600; Potency, µM (top dose mostly 46.1 µM), for inactives: at the highest dose activity, positive = more growth; actives 0.4% (n = 270,000); active means well fitted rising curve with a large enough effect; inconclusive means small, poorly fitted or top-dose-only effect; inactive means no such curve, though single readings can be large or run the other way; further: nearly all actives have a fitted effect of over 50% in size
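A cell-based growth assay was used: compounds that relieve NS1-induced slow growth of budding yeast raise OD600. Assay medium was yeast nitrogen base with ammonium sulphate and -URA supplement, pH 6.0, with 2% galactose.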
Cruzain noTriton: inhibitors of Trypanosoma cruzi cruzain without detergent | P25779 | purified cruzain, Z-FR-AMC fluorescence, no detergent | Potency, µM, without a hit: max response, negative = inhibition, hits mostly inhibitors | actives 2.3% (n = 200,000) | AID 1476;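 further: plate controls were enzyme without inhibitor for no effect and buffer without enzyme for full effect; nearly all actives have a fitted effect of over 40% in size; top concentration of the series not given in the record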
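Detergent-free condition (0.00005% Triton X-100) in acetate buffer pH 5.5 with DTT. 1.5 nM enzyme and compound were pre-mixed 15 min, then 2 uM Z-FR-AMC substrate added; reaction progress from fluorescence change between first and third reads (60 s).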
Active calls of the source: *; ? = inconclusive; nt = not tested or not shown; & = joins results of further samples; [ ] = remark or other dose. Unless noted, the call rests on the fitted dose curve; in most records, active means well fitted curve in the direction sought with a large enough effect; inconclusive means small, poorly fitted or top-dose-only effect, or another doubt; inactive means no such curve, though single readings can be large; an effect the other way counts as inactive or inconclusive. Potency means the concentration at half of the fitted maximal effect.

canonical_smiles,Lassa entry inh,StopGo reporter,SARS PLP yeast,MARV entry inh,Cruzain inh Det,RE007 growth inh,NS1 function inh,Cruzain noTriton
NC(=O)C1=CN(C2OC(COP(=O)(O)OP(=O)(O)OC[C@H]3O[C@@H](n4cnc5c(N)ncnc54)[C@H](OP(=O)(O)O)[C@H]3O)C(O)C2O)C=CC1 (some centres not stated),nt,nt,nt,-6%,-3.2%,nt,3%,7%
O=C(c1ccccn1)N1CCN(S(=O)(=O)c2ccc(F)cc2)CC1,-29%,6%,3%,-4%,nt,5%,-1%,nt
CSCCC(NC(=O)C1CCC(C)CC1)C(=O)Nc1ccc(NC(C)=O)cc1 (configuration not stated),8%,16%,-2%,-4%[46.1 µM],nt,-2%,3%,nt
CN1c2ccccc2C(C)(C)C12C=Nc1c(ccc3ccccc13)O2 (configuration not stated),2%,3%,-9%,-1%,0.6%,?,-36%,?
COc1cc(C2C(C#N)=C(N)Oc3c2ccc2ccccc32)ccc1OCC(=O)Nc1ccc(C)cc1 (configuration not stated),?,?,6%,?,-3.1%,5%,?,10µM*
CCn1c(SCC(=O)NC(C)(C)C)nnc1-c1ccccn1,13%,21%,0%,-1%,5.1%,1%,8%,6%
CCOc1c(C(N)=O)c(-c2ccccc2)c2c(=O)[nH]c3ccccc3n12,-1%,0%,-4%,-11%,5.6%,6%,-2%,-3%
Cc1cccc(OCC(=O)Nc2ccccc2OCc2cc(=O)n3cc(C)ccc3n2)c1,13%[46.1 µM],?,nt,nt,5.1%,nt,nt,1%
CN(C)c1cc[nH]c(=O)c1C#N,6%,11%,15%[6.58 µM],21%,8.6%,-3%,-3%,-6%
CCCCNC(=O)c1ccc(-c2nc(CS(=O)(=O)c3ccc(C)cc3)c(C)o2)cc1,-6%[46.1 µM],0%,nt,nt,-2.4%,nt,nt,-1%
Cc1c(C(=O)O)cccc1-c1ccc(/C=C2\SC(=O)NC2=O)o1,nt,?,7%,nt,nt,-18%,?,nt
CN(c1ccc(C(=O)NC2CCCC2)cc1)S(=O)(=O)c1ccc(Cl)cc1,6%[46.1 µM],-5%,1%,-2%[46.1 µM],nt,10%,11%,nt
COC(=O)Cn1c2c(c3cc(C)ccc31)CCCC2,16%,12%,-1%,5%,-5.1%,?,-60%,-4%
CC(C)OC(=O)c1cn(-c2ccccc2)nc1-c1ccco1,-19%,?,-7%,-24%,-11%,45%,-12%,-4%
O=C(O)C1C2C=CC(O2)C1C(=O)Nc1ccc(S(=O)(=O)N2CCc3ccccc32)cc1 (configuration not stated),3%,10%,-17%,-3%,-5.5%,-11%,3%,-9%
O=C(O)c1ccc(CSc2ncn[nH]2)cc1,20%,nt,4%,8%,4.0%,6%,-7%,1%
COC(=O)NC1CSCC1OC(=O)CN1C(=O)c2ccccc2C1=O (configuration not stated),-13%,-2%,-5%,9%,1.6%,-3%,2%,-15%
C/C(C/C(C)=C1/SC(=S)NC1=O)=C1\SC(=S)NC1=O,5%,-9%,5%,28%[46.1 µM],nt,9%,nt,nt
O=C(Cn1cnc2c(nnn2Cc2ccc(Cl)cc2)c1=O)OCc1ccccc1,-8%,nt,-7%,?,-3.6%,1%,-5%,-5%
O=C(CCc1nnc2ccc(N3CCC4(CC3)OCCO4)nn12)Nc1ccc(F)cc1,nt,-11%,0%,nt,nt,-1%,-14%,nt
CC1(C)C2(C#N)C(N)=NC3(OCCO3)C12C#N (configuration not stated),1%,0%,6%,?,5.3%,16%,-4%,6%
CN(C(=O)Oc1ccc(C(C)(C)C)cc1)c1ccccc1,-28%,63%[activator],-1%,1%[14.2 µM],nt,8%,-8%,nt
O=C(O)CCCC(=O)N1CCN(c2ncccn2)CC1,?,-2%,0%,-9%,nt,-4%,4%,nt
Cc1ccc(S(=O)(=O)Nc2ccc3c(c2)n(C)c(=O)n3C)c(C)c1,-15%,-1%,0%,-8%[46.1 µM],nt,-3%,4%,nt
CCCN(CC(=O)Nc1ccccc1OC)C(=O)c1cccc(S(=O)(=O)Nc2ccc(OC)cc2)c1,-13%[46.1 µM],77%[activator],-2%,-22%,nt,2%,nt,nt
COc1cc2c3c(n(C)c(=O)c2cc1OC)-c1cc2c(cc1C3=O)OCO2,?,-12%,nt,0.56µM*,nt,-10%,nt,nt
CCOCCCNC(=O)Cn1cnc2sc(C)c(S(=O)(=O)N3CCN(c4ncccn4)CC3)c2c1=O,7%,-5%,1%,1%[46.1 µM],nt,-8%,nt,nt
S=C(NCc1ccccc1)N1CCc2ccccc2C1,14%,25%,0%,1%[46.1 µM],nt,4%,nt,nt
C=CCn1c(SCC(N)=O)nnc1-c1cc(Br)ccc1O,6%,-2%,-7%,8%,4.0%,5%,-14%,4%
c1ccc2c(c1)nc1n2C2(N3CCOCC3)CCCC2C1N1CCOCC1 (configuration not stated),2%,-21%,-5%,12%&12%,2.8%,7%,-1%,3%
CC1CCc2c(sc3ncn(CC(=O)N=Nc4c(O)[nH]c5ccccc45)c(=O)c23)C1 (configuration not stated),nt,0%,-1%,nt,nt,-11%,-2%,nt
COc1cc(NS(=O)(=O)c2ccc(N/C=C\C(=O)c3ccc(C)cc3)cc2)nc(OC)n1,-10%,67%[activator],nt,-21%,nt,0%,nt,nt
CCN(CC(=O)N1CCOCC1)S(=O)(=O)c1cc(Cl)ccc1Cl,-1%,-19%,-1%,15%,nt,-8%,-2%,nt
Cc1cc(C(=O)Nc2ccccc2Cl)c2ccccc2n1,9%,-23%,9%,6%,nt,-2%,-11%,nt
COc1ccc(S(=O)(=O)Nc2cc(-c3cn4ccccc4n3)ccc2C)cc1,17%[46.1 µM],11%,nt,15%[46.1 µM],4.7%,nt,nt,?
CCn1c(SCC(=O)Nc2ccccc2)nnc1-c1cccs1,nt,-9%,0%,nt,nt,-7%,3%,nt
COc1ccc(NC(=O)c2ccc3c(c2)OCCO3)cc1OC,nt,26%,0%,?,nt,-15%,0%,nt
COc1cc(C(=O)Nc2cccc(OCc3cc(=O)n4cc(C)sc4n3)c2)cc(OC)c1OC,?,-4%,nt,7%[46.1 µM],-0.5%,nt,nt,?
Cc1ccc(S(=O)(=O)N2CCC(C(=O)NCCN3CCOCC3)CC2)cc1C,nt,-9%,?,nt,nt,17%,2%,nt
COc1ccc(C2SCC(=O)Nc3c2c(C)nn3C2CCOC(C)(C)C2)cc1 (configuration not stated),6%,4%,4%,0%,-1.4%,18%,8%,14%
NC(=O)NC(c1ccccc1)c1cccc2ccccc12 (configuration not stated),1%,-11%,21%,2%,-2.1%,-1%,?,3%
C/C=C/c1ccc(OCC(=O)Nc2ccncc2)c(OC)c1,nt,-7%,-1%,nt,nt,-24%,-10%,nt
OC[C@H]1OC(Nc2ccc(N=Nc3ccccc3)cc2)[C@@H](O)[C@@H](O)[C@@H]1O (some centres not stated),nt,41%[activator],-3%,nt,nt,-27%,4%,nt
CCCn1c(=N)c(C(=O)NCC2CCCO2)cc2c(=O)n3cc(C)ccc3nc21 (configuration not stated),11%[46.1 µM],-7%,nt,22%[46.1 µM],?,nt,nt,11%
Clc1ccc(-c2nnc3n2CCCS3)cc1,0%,21%,4%,?,1.6%,-10%,2%,1%
COc1ccc(OC)c(CCNC(=O)Cc2ccc(NC3=NC4CS(=O)(=O)CC4S3)cc2)c1 (configuration not stated),nt,-18%,3%,nt,nt,5%,-1%,nt
O=C(Nc1cccc(F)c1)C1CCCN(c2cnccn2)C1 (configuration not stated),nt,-6%,-13%,nt,nt,-16%,3%,nt
CCCc1cc(N2CCN(c3cc(Cl)ccc3C)CC2)n2cnnc2n1,7%[46.1 µM],?,nt,29%[46.1 µM],-1.2%,nt,nt,-6%
CCc1ccc(C2=CC(c3cccc(Br)c3)n3nnnc3N2)cc1 (configuration not stated),-2%[46.1 µM],0%,nt,nt,-3.1%,nt,nt,-1%
C(=C\c1ccco1)/c1nc2ccccc2[nH]1,nt,0%,-4%,nt,nt,-26%,-4%,nt
CCOC(=O)c1ccccc1NC(=O)CCOc1ccccc1,20%[46.1 µM],-21%,nt,nt,-8.1%,nt,nt,6%
N#CCc1cnc2ccccc2n1,-23%[46.1 µM],-14%,-1%,-5%[46.1 µM],nt,17%,5%,nt
Cc1cc(C)c(C#N)c(SCC(O)COc2ccc(Br)cc2)n1 (configuration not stated),11%,-13%,-47%,-17%,nt,-9%,-28%,nt
O=[N+]([O-])c1cc(F)c(N2CCOCC2)cc1N1CCCCC1,-1%,-10%,-1%,1%,-3.8%,-3%,-1%,-1%
Cn1c(N/N=C2\CCCc3ccccc32)nc2c1c(=O)n(Cc1ccc(F)cc1)c(=O)n2C,19%,?,14%,7%&-2%,-20%,2%,-5%,1%
Nc1nc(NCCO)nc(NCC2CCCO2)c1[N+](=O)[O-] (configuration not stated),-20%,0%,5%,3%,-11%,-12%,18%,-12%
CCOC(=O)NC(Nc1ccc(S(N)(=O)=O)cc1)(C(=O)OCC)C(F)(F)F (configuration not stated),5%,-1%,0%,-6%,8.9%,4%,?,-3%
Nc1[nH]ncc1S(=O)(=O)c1ccccc1,-18%[46.1 µM],-9%,0%,?,nt,12%,8%,nt
O=C(c1ccc(S(=O)(=O)Nc2ccccc2)cc1)N1CCC1,-7%,-11%,-3%,-1%[46.1 µM],nt,-9%,nt,nt
Clc1ccc(C(c2nnnn2C2CCCCC2)N(Cc2cccnc2)Cc2ccco2)cc1 (configuration not stated),-13%,?,-1%,0%&0%,-5.3%,1%,-52%,-1%
Clc1ccc2nc(-c3ccccc3)c(CN3CCOCC3)n2c1,8%,-11%,-4%,?,-1.7%,9%,-22%,8%
O=C(COc1ccc(Cl)cc1Cl)N/N=C/c1ccc(OC2OC(CO)C(O)C(O)C2O)cc1 (configuration not stated),nt,13%,1%,nt,nt,0%,6%,nt
